Assay outcomes: PubChem BioAssay, National Center for Advancing Translational Sciences (NCATS)
CtBP-E1A inh = blocks the CtBP interaction with E1A; AlphaScreen GST-E1A/His-CtBP binding, 1536-well; stronger effect = lower value; control for the full effect not named in the record; 0.49% of 340,000 active; AID 651724; activity change, % (test concentration not listed); in the data active means activity change below about -65%; inconclusive means about -30% to -65%; inactive means above about -30%; note: % is set by controls: 0 for no effect and ±100 for the full control effect; compound concentration not given in the record
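Steps: dispense buffer (Tris pH 8.0, NaCl 300 mM, TCEP 1 mM, BSA, Tween 20); add 5X protein mix (GST-E1A, His-CtBP, 125 nM each); pin 23 nL compound; 2 h at 37 °C, dark; add 5X beads (50 ug/mL); 1 h; read.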
TRPML1 agonist = human mucolipin-1 channel agonism; Q9GZU1; TRPML1-expressing cells, Ca2+ dye fluorescence, FDSS; host cell line not named in the record; reference of the full effect not given here; activation, % (concentration not given with the values); 0.12% of 410,000 active; in the data active = activation above about 50%; inconclusive = about 30% to 50%; inactive = below about 30%; note: 0% is about no effect; the text of the record puts the active cut at 80%
Target sequence (Q9GZU1 whole entry, looked up): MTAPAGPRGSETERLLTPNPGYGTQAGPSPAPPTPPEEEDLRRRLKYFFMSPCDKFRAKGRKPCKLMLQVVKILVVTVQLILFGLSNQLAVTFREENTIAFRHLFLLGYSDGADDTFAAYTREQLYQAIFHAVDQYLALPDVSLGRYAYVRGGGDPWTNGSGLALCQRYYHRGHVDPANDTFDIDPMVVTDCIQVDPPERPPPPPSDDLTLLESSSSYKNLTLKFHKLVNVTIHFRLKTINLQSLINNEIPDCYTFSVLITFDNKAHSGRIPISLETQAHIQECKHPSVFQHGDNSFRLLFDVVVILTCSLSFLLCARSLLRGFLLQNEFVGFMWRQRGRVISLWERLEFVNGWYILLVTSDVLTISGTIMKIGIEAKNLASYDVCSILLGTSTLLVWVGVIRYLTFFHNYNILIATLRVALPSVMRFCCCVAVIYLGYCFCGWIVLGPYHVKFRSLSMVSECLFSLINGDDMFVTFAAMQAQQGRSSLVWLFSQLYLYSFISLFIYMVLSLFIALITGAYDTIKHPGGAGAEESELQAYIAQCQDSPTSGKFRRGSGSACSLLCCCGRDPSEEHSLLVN
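Tetracycline-induced TRPML1-DL cells are seeded and incubated overnight before loading with a no-wash Ca2+ dye and quencher. Agonist activity is taken from the 110 s fluorescence read following compound pin-transfer on an FDSS, before EC80 54-4 challenge.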
Six1-Eya2 blk = inhibitors of human Six1/Eya2 interaction | AlphaScreen GST-Six1/His-Eya2 binding, biochemical; stronger effect = lower value; control for the full effect not named in the record | activity change, % (test concentration not listed) | 0.56% of 360,000 active; in the data active = activity change below about -65%; inconclusive = about -30% to -65%; inactive = above about -30%; note: % is set by controls: 0 for no effect and ±100 for the full control effect; compound concentration not given in the record
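Compounds are tested against tagged Six1 and Eya2 proteins bridged by glutathione donor and nickel acceptor beads; after a one-hour incubation at 37 °C without light, AlphaScreen emission is recorded.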
PINK1 expr mod = PINK1 expression modulation; AID 624263; Potency, µM (series often up to 76.6 µM), for the others: at the top dose activation (PINK1 increase), actives largely listed as activators; 0.2% of 410,000 active; PINK1 immunofluorescence, high-content cytometry, 24 h; active = well fitted activation curve with a large enough effect; inconclusive = small, poorly fitted or top-dose-only effect; inactive = flat fitted curve, though single readings scatter; cell line not stated here;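 note: potency is the fitted concentration of half-maximal effect; % of control where 0% means no effect; nearly all actives have a fitted effect of over 65% in size; a mitochondrial uncoupler was the plate control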
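Measures PINK1 amount and localization on or inside mitochondria by immunofluorescence. Stable cells get compounds at 5 concentrations for 24 hours before fixation and staining; CCCP controls included.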
TRPML1 blocker = inhibitors of human TRPML1 channel; Q9GZU1; TRPML1-inducible cells, Ca2+ dye fluorescence, FDSS; stronger effect = lower value; inhibition of EC80 agonist-evoked calcium signal; activity change, negative = inhibition, % (test concentration not listed); 0.02% of 390,000 active; AID 624415; in the data active means activity change below about -50%; inconclusive means about -30% to -50%; inactive means above about -30%;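 note: stimulus is agonist 54-4 at its EC80 concentration; % is set by controls: 0 for no effect and ±100 for the full control effect; compound concentration not given in the record; the text of the record puts the active cut at -80%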
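Tet-induced TRPML1-DL cells loaded with Ca8 no-wash calcium dye were read kinetically on FDSS. Compound addition was followed by EC80 agonist 54-4 (4 uM final); inhibition was read over 110 s.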
D2 ag = human D2 receptor agonism in beta-arrestin assay; AID 624465; DiscoveRx PathHunter D2 beta-arrestin, luminescence, 90 min; 100% = 57 uM dopamine signal; 0.084% of 360,000 active; activation, % (test concentration not listed); P14416; in the data active = activation above about 40%; inconclusive = about 15% to 40%; inactive = below about 15%; note: compound concentration not given in the record; the text of the record calls up to 30% inactive
Target sequence (P14416 whole entry, looked up): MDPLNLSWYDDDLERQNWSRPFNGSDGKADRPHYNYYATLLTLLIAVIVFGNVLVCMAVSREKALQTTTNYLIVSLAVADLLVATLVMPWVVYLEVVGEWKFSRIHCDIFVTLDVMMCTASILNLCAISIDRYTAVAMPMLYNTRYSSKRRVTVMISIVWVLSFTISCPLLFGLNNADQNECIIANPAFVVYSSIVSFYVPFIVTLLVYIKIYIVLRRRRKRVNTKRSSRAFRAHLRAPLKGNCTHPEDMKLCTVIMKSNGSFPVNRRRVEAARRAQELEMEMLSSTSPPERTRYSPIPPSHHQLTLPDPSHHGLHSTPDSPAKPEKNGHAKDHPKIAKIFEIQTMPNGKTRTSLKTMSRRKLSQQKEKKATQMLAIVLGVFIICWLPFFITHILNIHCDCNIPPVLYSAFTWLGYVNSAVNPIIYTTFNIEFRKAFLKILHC
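Agonist mode: compounds alone added to overnight-plated D2 PathHunter cells for 90 min at 37 C, with 57 uM final dopamine (EC100) defining full response. Beta-arrestin recruitment detected by chemiluminescent reagent, read after 1 h at ambient temperature.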
* marks the source's active call; other numbers are inactive results; ? = inconclusive; · = no result given; & = joins results of further samples; [ ] = another dose, or the depositor's remark.

Structure	TRPML1 agonist	Six1-Eya2 blk	PINK1 expr mod	CtBP-E1A inh	TRPML1 blocker	D2 ag
C(=Cc1cnnc2ccccc12)c1ccccc1	1.8	-19	2.9%	-15	0	-3.8
c1ccc(CNc2nc(NCCOc3ccccc3)c3sccc3n2)cc1	4.6	-2	?	-4	·	3.5
CC(C)(C)c1ccc(C(=O)NCc2ccc(Cl)cc2)cc1	-0.5	1	17%[38.3 µM]	-2	-4	3.8
CCOC(=O)CC(=O)CSc1nc2ccc(C)cc2cc1C#N	1.3	-8	1.5%[38.3 µM]	-13	1	-0.9
CC(C)=CC(=O)OCC(=O)Nc1ccccc1Cl	0.3	1	0.0%	6	-7	-3.3
N#C/C(=C(/O)COC(=O)CSc1ccc2ccccc2c1)c1nc2ccccc2[nH]1	0.4	-7	7.3%	-1	6	-1.9
Cc1ccc(OCCCC(=O)Nc2cc(S(=O)(=O)N3CCOCC3)ccc2N2CCOCC2)cc1	-0.7	3	2.8%	-5	-2	-1.3
Cc1sc2nc(SCC(=O)NCc3ccco3)n(C)c(=O)c2c1C	-0.1	-1	-0.8%	-1	8	1.0
O=C(Nc1cccc(NC(=O)c2cncc(Br)c2)c1)c1cncc(Br)c1	-0.2	0	4.5%	2	0	1.2
O=C(c1cc(F)c(F)cc1Cl)N1CCN(S(=O)(=O)c2cccs2)CC1	-0.2	-4	1.3%	4	-13	-4.3
CC(C)Cn1[nH]c2c3c(ccc2c1=O)C(=O)c1ccccc1C3=O	-1.4	-16	-2.5%	-17	17	2.7
CC(=O)OC[C@H]1O[C@@H](n2ccc(=O)[nH]c2=S)C(OC(C)=O)C1OC(C)=O (stereo partly drawn)	-0.4	3	-1.3%[38.3 µM]	8	-18	-3.5
COCCNC(=O)C1(C)CCCN(Cc2ccccc2N(C)C)C1 (stereo not drawn)	0.2	9	0.8%	1	·	-6.1
COc1ccccc1NC(=O)/C=C/C(=O)O	2.8	24	-0.3%	0	-20	0.5
Cc1ccc(CSc2nnc(SCC(=O)N/N=C/C=C/c3ccccc3[N+](=O)[O-])s2)cc1	-0.2	-9	0.5%	-8	-12	-2.3
COC(=O)CSC1=C(C#N)C(c2ccsc2)CC(=O)N1 (stereo not drawn)	0.1	0	6.6%	0	20	-0.8
Cc1ccc(-c2ccc(CCC(=O)O)o2)cc1	-0.5	-3	?	-11	-12	0.6
CN(C)c1nc(=Nc2cccc(Cl)c2)ss1	-0.5	-3	1.6%	·	11	-15
CCN(CC)c1ccc(CN(C(=O)c2cc(=O)c3ccccc3o2)C2CCS(=O)(=O)C2)cc1 (stereo not drawn)	2.8	·	1.1%	·	-7	·
O=C(O)CCn1cc(C2CC(c3ccccc3)=NN2c2ccccc2)c(-c2ccccc2)n1 (stereo not drawn)	5.8	14	-0.8%	13	-2	3.0
O=[N+]([O-])c1cc([N+](=O)[O-])c(Oc2cncc(Cl)c2)cc1NC1CCCCCCC1	-0.4	-2	1.2%	0	11	-1.6
CC(C)C(=O)N1CCC1(C)C(=O)NS(=O)(=O)c1cccs1 (stereo not drawn)	-0.5	-1	1.3%	9	·	-4.9
O=C(CSc1nnnn1-c1cccc2ccccc12)N1CCOCC1	-0.6	0	-1.7%	3	-3	-1.4
COc1cc(CC(=O)OCC(=O)N2CC(=O)Nc3ccccc32)cc(OC)c1OC	-0.5	15	-1.6%	9	44	-2.0
COCCNC(=O)CSc1nc2ccc(N3CCOCC3)cc2c(=O)n1CCc1ccccc1	-0.8	-2	5.4%[38.3 µM]	1	4	-0.2
O=C(CC(=O)c1ccccc1O)c1cccc(F)c1	0.0	-4	1.4%	0	0	-2.0
O=C(O)c1cn(-c2ccccc2)nc1-c1ccc(F)cc1	0.5	8	-0.1%	·	-6	-1.5
Cc1ccnc(NC(=O)CN2C(=O)c3ccccc3C2=O)c1	-0.9	8	-1.1%	-1	-5	-3.9
COC(=O)C1(Cc2cc(-c3cccc(Br)c3)no2)CCN(C(=O)OC(C)(C)C)CC1	-0.6	7	3.0%	7	22	-2.7
COC(=O)c1c(NC(=O)c2nc3nc(C)cc(C(F)F)n3n2)sc2c1CCC2	1.4	-3	6.0%[38.3 µM]	0	20	1.2
CC(NC(=O)c1ccc(NC(=O)CC2SC(N3CCCC3)=NC2=O)cc1)c1ccc(S(N)(=O)=O)cc1 (stereo not drawn)	2.2	-12	-0.4%	-7	1	5.0
Cc1cc(C)c(NC(=O)c2sc3nc4c(cc3c2N)C(=O)CC(C)(C)C4)c(C)c1	2.3	-2	1.7%	·	10	0.6
CCC(C)NC(=O)Cn1cc(S(=O)(=O)N2CCCC2)c(S(=O)(=O)N2CCCC2)c1 (stereo not drawn)	-0.6	24	0.0%	6	-1	-5.4
Cc1ccsc1C(=O)NNC(=O)c1cccc(S(=O)(=O)N2CCCC2)c1	-0.1	-3	-0.2%	10	20	-4.0
Cc1cc(C)nc(SCc2ccc(C(=O)N/N=C/c3ccco3)cc2)n1	-1.2	-9	-1.3%	-3	-5	-6.1
O=C(Nc1ccc(S(=O)(=O)N2CCCC2)cc1)c1ccc(F)cc1	0.4	-4	0.2%	-2	9	0.5
COc1cccc(CNC(=O)CCNC(=O)Cn2ccc3ccccc3c2=O)c1	0.1	-1	-2.3%	-1	0	-2.1
COc1cc2[nH]c(=O)c(C(=O)NCCCN3CCOCC3)c(O)c2cc1OC	2.0	-14	0.5%	·	-17	-0.4
CCCN1CCC(NC(=S)Nc2ccc(S(N)(=O)=O)cc2)CC1	-0.1	3	0.2%	0	3	-1.5
Cc1cc(C(=O)NCc2cccc(Cl)c2)c2ccccc2n1	0.9	-4	2.8%	-1	-17	-2.1
CC1CC(C)(C)CC2(C1)NC(=O)N(CC(=O)NCCc1ccc3c(c1)OCCO3)C2=O (stereo not drawn)	-0.4	-4	5.6%	-6	-10	-1.1
COc1ccc(C(=O)Nc2ccc(C(=O)N3CCCC3)cc2)cc1[N+](=O)[O-]	1.1	4	-0.3%	-9	14	-3.4
O=C(CSc1ccccc1C(=O)N1CCN(c2ccc([N+](=O)[O-])cc2)CC1)N1CCCC1	0.4	0	0.3%	8	3	-2.9
COc1ccc(C(=O)OCC(=O)Nc2cc(C)on2)cc1F	-0.7	-5	4.4%	-2	-8	1.2
Cc1ccc2c(c1)N(S(=O)(=O)c1ccc(CN3C(=O)c4cccnc4C3=O)cc1)CCO2	-0.3	1	-0.3%	1	0	-4.3
CCOc1ccccc1C1c2cc3c(cc2OC(C)(N2CCCC2)C1C)OCO3 (stereo not drawn)	1.7	17	1.4%	2	2	2.0
Cc1sc(-c2ccncc2)nc1OC(=O)c1ccc(F)cc1F	0.1	0	-1.1%	23	25	4.5
CN1CCN(c2ccc(CNC(=O)c3ccco3)cc2)CC1	-0.1	2	0.8%	·	-3	-5.7
CCOC(=O)C1(CC)NC(c2ccco2)C2C(=O)N(CC)C(=O)C21 (stereo not drawn)	0.7	-1	1.1%	-2	13	-5.9
CC(C)CC(NC(=O)C1CCC(=O)N1)C(=O)NC(CC(C)C)C(=O)N1CCCC1C(N)=O (stereo not drawn)	-0.2	-21	-0.5%	·	26	-1.5
COc1ccc(NC(=O)c2cccnc2NCCc2ccccc2)cc1	0.8	2	?	7	-5	-0.3
COc1ccccc1N1CCN(C(=O)CCc2c(C)nn(-c3ccc(N4CCCC4)nn3)c2C)CC1	-0.8	·	2.1%	·	-11	·
CCOc1cc(C(=O)Nc2ccc(S(=O)(=O)N3CCOCC3)cc2)cc(OCC)c1OCC	-0.7	5	-1.3%	5	-10	-3.7
Nc1nc2n(n1)C(c1cccc(Br)c1)CC(c1ccccc1)N2 (stereo not drawn)	6.1	8	1.1%	-22	20	-1.8
O=C(/C=C/[C@H]1O[C@@H](n2cnc3c(NC(=O)c4ccccc4)ncnc32)[C@H](O)[C@@H]1O)NCCc1ccc(F)cc1	-0.2	6	-0.6%	1	1	-4.2
CCN(CC)CC(=O)NC12CC3CC(CC(C3)C1)C2	-0.6	6	-4.7%	-2	-11	-5.3
CC(C)NC(=O)c1cccc(Br)c1	0.4	4	10%[38.3 µM]	4	-16	-1.8
CSc1cccc(NC(=S)Nc2ccc(F)cc2)c1	0.0	3	1.1%	-2	1	2.8
Fc1ccc(-c2nc3ccc(Br)cn3c2Cc2cccc(F)c2)cc1	1.8	2	1.9%	5	-7	-4.0
COc1ccccc1NC(=S)N(CCCN1CCOCC1)Cc1cn(C)c2ccccc12	0.3	-7	2.5%	-14	9	-6.6

3 entries picked at random from those above, as already listed:
Structure	TRPML1 agonist	Six1-Eya2 blk	PINK1 expr mod	CtBP-E1A inh	TRPML1 blocker	D2 ag
CSc1cccc(NC(=S)Nc2ccc(F)cc2)c1	0.0	3	1.1%	-2	1	2.8
CC(C)CC(NC(=O)C1CCC(=O)N1)C(=O)NC(CC(C)C)C(=O)N1CCCC1C(N)=O (stereo not drawn)	-0.2	-21	-0.5%	·	26	-1.5
COc1ccccc1N1CCN(C(=O)CCc2c(C)nn(-c3ccc(N4CCCC4)nn3)c2C)CC1	-0.8	·	2.1%	·	-11	·

The list continues.
Structure	TRPML1 agonist	Six1-Eya2 blk	PINK1 expr mod	CtBP-E1A inh	TRPML1 blocker	D2 ag
CCc1nc2nc(C)cc(C)n2c1Nc1ccc(OC)cc1	-1.1	-2	0.9%	0	·	·
Cc1cc(C)n(-c2nc(SCCN(C)C)c3c4c(sc3n2)CCCC4)n1	-0.1	-19	5.4%[38.3 µM]	-18	1	-4.5
Nc1nc2c(s1)CCc1c-2cnn1-c1ccccc1	1.3&-0.7	-17	0.5%&-0.8%	·	9	40*
CC(=O)c1ccc(OCCNS(=O)(=O)c2ccc(-n3cnnn3)cc2)cc1	-0.5	4	-0.7%	7	6	9.1
O=C(CN1C(=O)CCC1=O)Nc1nc(-c2ccccn2)cs1	0.0	-88*	3.4%	?	-7	2.6
COc1ccc(-c2nc3ccc(C(=O)NCc4ccc(C)cc4)cc3nc2-c2ccc(OC)cc2)cc1	1.9	·	7.3%	·	16	·
CN(C)S(=O)(=O)c1cc(NC(=O)COC(=O)C2CSC3(C)CCC(=O)N23)ccc1Cl (stereo not drawn)	0.3	4	-1.7%	2	4	-1.8
CC1CCN(c2nc3c(S(=O)(=O)c4ccccc4)nnn3c3ccc(Cl)cc23)CC1	2.2	·	0.5%	·	-2	·
O=C(NCc1ccccn1)C1CCC(=O)N1C1CCCC1 (stereo not drawn)	0.6	-20	1.7%	-16	15	-6.6
O=C(C1CCN(c2nnc(N3CCCC3=O)s2)CC1)N1CCN(Cc2ccc3c(c2)OCO3)CC1	-1.4	0	0.0%	-9	8	2.7
CCn1nc(CC(=O)Nc2nnc(CC(=O)N3CCOCC3)s2)c2ccccc2c1=O	0.6	4	-0.2%	11	2	-1.4
